MgrA DNA FP = S. aureus MgrA-DNA binding modulation | fluorescence polarization | 84,000 compounds, 0.13% hits | inhibition, %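 (about 10 µg/mL by stock and volumes)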 | AID 602314;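 active = above 50% in either of two replicates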;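 note: 0% = protein plus DNA without compound and 100% = DNA alone without protein; higher means less MgrA bound to DNA so lower polarization; one replicate is shown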
S aureus helic = S. aureus DNA helicase inhibition | inhibition, %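 (tested at about 80 µM)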 | 120,000 compounds, 0.05% hits | purified S. aureus helicase, fluorescence unwinding assay; about half of the hits fall short of the stated cut;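 active = both duplicates at 50% or more, or one of them with a favoured structure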;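 note: 0% = mean of negative control wells and 100% = mean of positive control wells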
Active calls of the source: *; x = not tested or not shown; & = joins results of further samples. These rows are one share of the data, so the mix of outcomes need not match the whole.

SMILES	MgrA DNA FP	S aureus helic
O=C(NC(=S)Nc1cc(-c2cccs2)[nH]n1)c1ccccc1	-1.0	x
COc1ccc(NC(=S)Nc2ccc(S(=O)(=O)N3CCOCC3)cc2)cn1	0.7	7
COCCN(CCOC)S(=O)(=O)c1ccc(C(=O)Nc2nnc(-c3ccc(F)cc3)s2)cc1	-2.2	x
CN(Cc1ccccc1Cl)C(=O)c1ccc(O)c(Cl)c1	x	-12
CC1Cc2ccccc2N1C(=O)CCS(=O)(=O)c1ccc2c(c1)CCN2C(=O)C1CC1 (stereo unspecified)	x	3
Cc1[nH]nc2cc(F)ccc12	x	17
COC(=O)Nc1cc(C)nc2ccccc12	x	1
COc1ccc2c(c1)c(=O)oc1c(C)c3occ(C)c3cc12	1.4	19
CC1CCCCN1c1ccc(NC(=O)c2cccnc2)cc1 (stereo unspecified)	-0.2	19
CN1C(=O)/C(=N\OC(=O)c2cccc(F)c2)c2ccccc21	x	34
O=c1[nH]c(O)c(C(c2ccc(F)cc2)N2CCCC2)c(=O)[nH]1 (stereo unspecified)	x	17
CCCCN1C(=O)C2ON(c3ccccc3)C(c3ccc(OC)cc3)C2C1=O (stereo unspecified)	x	-14
O=C(CSc1ccccc1C(=O)N1CCc2ccccc21)NCc1ccco1	x	35
COC(OC)C1(C)NC(=O)c2ccccc2N1 (stereo unspecified)	-5.0	3
CC(/C=C/c1ccc(N(C)C)cc1)=N\N=C(/N)SC1CC(=O)N(c2ccccc2)C1=O (stereo unspecified)	1.2	7
Cc1ccc(C(=O)Nc2cccc(-c3nc4ccccc4o3)c2)cc1	-1.3	-13
CCOc1ccc(OCC)c(Nc2nc3ccc(C)cc3n3nnnc23)c1	x	-32
Cc1ccc(NC(=S)NCC2CCN(C(C)c3ccccc3)C2)cc1 (stereo unspecified)	-0.4	1
CC(C)N(C(=O)Cc1cccs1)C(C)C	-3.5	1
COc1ccc2cc(CCNC(=O)C3CC3)c(=O)[nH]c2c1	x	-7
CCOc1ccc(S(=O)(=O)N(CC(=O)N2CCCc3ccccc32)Cc2ccco2)cc1	x	4
CC1CC(C)CN(C(=O)C(Cc2ccccc2)NS(=O)(=O)c2cccc3nsnc23)C1 (stereo unspecified)	1.9	6
Nc1ccc(Oc2ncc(C(F)(F)F)cc2Cl)cc1	0.6	x
O=C1O[C@@H]2C[C@H]3C[C@@H]2[C@@H]1[C@H]3C(=O)Nc1ccc(C(=O)N2CCCCC2)cc1	x	2
O=C(NC1CCCC1)c1nc(-c2ccc(Cl)cc2)n2c1CCCCC2	0.2	11
Cc1ccc(NC(=O)CNC2CCCCC2)cc1Cl	0.9	-5
O=C(CSc1nnc(NCc2ccccc2)s1)N1CCOCC1	x	-7
C=CCN1C(=O)S/C(=C/c2ccc(OC)c(OCC)c2)C1=O	1.6	3
O=C(COC(=O)c1ccc(O)cc1)Nc1ccc(N2CCCCC2)cc1	x	9
Nn1c(=O)[nH]c2sc3c(c2c1=O)CCCC3	4.8	29
CC1CCCN(CCC(=O)c2ccc(Br)cc2)C1 (stereo unspecified)	-2.0	6
O=C(OC(C(=O)Nc1cc(C(F)(F)F)ccc1Cl)c1ccccc1)c1cccnc1 (stereo unspecified)	-3.2	-3
Cc1ccc(C)n1-c1ccc(C(=O)NC2CCC(O)CC2)cc1 (stereo unspecified)	x	-7
O=C(OCC(=O)C12CC3CC(CC(C3)C1)C2)c1cccs1	x	16
COc1ccc(Nc2cc(C(=O)NCC3CCCO3)c3ccccc3n2)c(OC)c1 (stereo unspecified)	x	9
Cc1cc(C(=O)CSc2nc(N)c(C#N)cc2C#N)c(C)n1-c1ccc2c(c1)OCO2	x	2
CSC(NCc1ccc(Cl)cc1Cl)=C(C#N)C#N	x	11
O=C(c1cccs1)c1cnc2ncccn12	x	14
CCCC(=O)C1C(=O)C=C(C)OC1=O (stereo unspecified)	-0.1	-6
O=C(Nc1c(-c2cccs2)nc2ccccn12)C(c1ccccc1)c1ccccc1	0.8	7
CCCCCCCCCCCCSC1CC(=O)N(c2ccccc2)C1=O (stereo unspecified)	-0.8	x
Cn1cnc2onc(C(=O)Nc3ccc(F)cc3)c2c1=O	x	2
COc1ccc(-c2nc(CSCC(=O)NC(C)C)c(C)o2)cc1OC	x	-13
CNC(=S)Nc1ccc(S(N)(=O)=O)cc1	1.7	6
O=C(NC1CCCCC1)c1cccc(Cn2cc(Cl)cn2)c1	-0.4	12
O=S(=O)(c1ccsc1)N1CC=C(c2ccccc2)CC1	1.8	x
CCOC(=O)Cc1csc(NC(=O)C2C3C=CC(C3)C2C(=O)O)n1 (stereo unspecified)	-0.2	2
C=CCn1c(=O)c2ccccc2n2c(SCC(=O)NC3CCS(=O)(=O)C3)nnc12 (stereo unspecified)	x	7
Cc1[nH]nc(-c2cccs2)c1C(=O)NN	-4.2	x
O=C(COCc1cc(-c2ccc(F)cc2)on1)N1CCCC1	x	-12
COc1ccc2cc(C(=O)NC(C)=O)c(=Nc3cccc(C(F)(F)F)c3)oc2c1	-1.8	x
Cc1ccc(NC(=O)c2cc3cc4c5c(c3oc2=N)CCCN5CCC4)cc1	x	-101
CNC(=S)N1N=C(c2ccccc2)CC1c1cc2ccc(C)cc2nc1Cl (stereo unspecified)	-0.2	-16
COc1cc(/C=N/NC(=S)N/N=C/c2ccc(O)c(OC)c2)ccc1O	2.9	x
NC(=O)COc1cccc2cccnc12	-0.8	4
ClC1(Cl)CC1CSC1=NCCN1 (stereo unspecified)	-3.0	x
O=C(N=Nc1c(O)[nH]c2ccccc12)c1cccc(S(=O)(=O)N2CCCCC2)c1	x	-12
Cn1c2c(c(=O)n(C)c1=O)CN(CCO)CN2	-0.1	x
CCOC(=O)C1=C(SCC(=O)Nc2ccccc2)NC(=O)C(C#N)C12CCCCC2 (stereo unspecified)	-2.2	16
COC(=O)c1ccc(CS(=O)(=O)c2ccccc2)o1	x	18

The list goes on.
SMILES	MgrA DNA FP	S aureus helic
O=S(=O)(c1cc(Cl)ccc1Cl)N1CCNCC1	-1.2	-15
COC(=O)c1c(NC(C)=O)c2c(C)c(C)sc2n1Cc1nc(-c2cccs2)oc1C	0.2	7
Cc1ccc(CNC2=CC(=O)CC(C)(C)C2)cc1	x	-15
O=S1(=O)CC(O)C(S(=O)(=O)c2ccc(Cl)cc2)C1 (stereo unspecified)	-1.8	x
O=C(CCSCc1cnn(-c2ccccc2)c1-n1cccc1)NCC1COCCO1 (stereo unspecified)	x	-4
O=C1OC(=Nc2ccccc2)c2ccccc21	-0.2	16
O=C1NCC(=Nc2ccccc2)C(=O)N1	0.9	7
O=C(CSCCc1ccccn1)Nc1cccnc1	0.5	6
Cc1cc(C)cc(NC(=O)Cc2cccs2)c1	0.4	1
Cc1nnsc1C(=O)N(Cc1ccc(Cl)cc1)Cc1ccco1	x	16
O=C1CC(c2ccccc2Cl)Sc2ccccc2N1 (stereo unspecified)	x	-17
O=C1CCCC(O)=C1C=Nc1cccc(C(F)(F)F)c1	-1.5	15
CCOc1cc(C(=O)Nc2ccc3oc(-c4ccncc4)nc3c2)cc(OCC)c1OCC	-1.2	x
NC(=O)COC(=O)c1ccc2ccccc2n1	x	2
CS(=O)(=O)c1sc(Cl)c(-c2ccc(Cl)cc2)c1C#N	-0.9	x
O=C(COc1ccc2ccccc2c1Br)NCc1ccccc1	-0.4	0
Clc1ccc2nc(Cl)cc(-c3ccccc3)c2c1	-0.1	2
COC(=O)C1=C(Sc2ccc(Cl)cc2)CSC1	-1.0	x
COC(=O)C1C(=O)c2c(n[nH]c2C)CC1(C)C (stereo unspecified)	-1.5	19
C/C(=N\c1nc2ccccc2n1C)c1cc(Cl)ccc1O	22	-41
Cc1nn(-c2ccc(F)cc2)c(C)c1/C=C/C(=O)OCC(=O)Nc1sccc1C#N	x	-8
CC(=O)S[C@@H]1CC2=CC(=O)CC[C@]2(C)[C@H]2CC[C@@]3(C)[C@@H](CC[C@@]34CCC(=O)O4)[C@H]12	1.2	x
CC1(C)CC(=O)C2=C(C1)OC1=C(C(=O)CC(C)(C)C1)C2c1ccc(O)cc1O	33	x
CC(C)OC(=O)c1cc2c(ccn2-c2ccc(F)cc2)n1CC(=O)Nc1ccc2c(c1)OCO2	-1.5	-2
O=C(Cn1c(C(F)(F)F)nc2ccccc21)NCCN1CCOCC1	-1.1	0
O=C(Nc1ccc(F)cc1)N1CCN(C(=O)C2COc3ccccc3O2)CC1 (stereo unspecified)	x	-12
NC(=O)c1cccn1-c1ncc(C(F)(F)F)cc1Cl	-1.2	x
COc1ccc(-c2nc(CN3C(=O)CSc4ncccc43)c(C)o2)cc1OC	x	-19
CCOC(=O)Nc1ccc(S(N)(=O)=O)cc1	x	-2
c1ccc(C2=NNC(=NC3CC3)SC2)cc1	x	-17
COc1cc(C#N)ccc1OC(=O)CC1CC2CCC1C2 (stereo unspecified)	x	-5
O=C(Nc1ccc2c(c1)OCO2)c1ccncc1	1.1	10
O=C(CC1(C(F)(F)F)OCCO1)Nc1ccc(S(=O)(=O)Nc2ncccn2)cc1	x	2
Cc1nn(C2CCS(=O)(=O)C2)c(C)c1CN(C)c1ncnc2sccc12 (stereo unspecified)	x	13
CCOC(=O)NN=C1CN(S(=O)(=O)c2ccc(C)cc2)C1	x	-22
O=C(NCC(=O)N1CCN(S(=O)(=O)/C=C/c2ccccc2)CC1)c1ccc(Br)o1	x	7
COc1ccc(-c2c(C(F)(F)F)[nH]n3c(=O)cc(C(C)(C)C)nc23)cc1	-0.8	x
Cc1cc(F)ccc1NS(=O)(=O)c1cc(Br)cnc1N	0.0	9
CCc1ccccc1NC(=O)c1cc(C2CC2)on1	x	14
CC(C)(C)OC(=O)N1CCCN(C(=O)c2cccnc2Oc2ccc(Cl)cc2)CC1	-3.1	x
CNC(=O)/C(C#N)=C1\SC(CCO)C(=O)N1c1ccccc1 (stereo unspecified)	x	12
Cc1nc(N)nc(Sc2ccc(Cl)cc2)c1Cl	0.2	x
CCC(C)Nc1nc(SCC(=O)OC)nc(N(C)C)n1 (stereo unspecified)	x	6
Cn1c2ccccc2c2cnn(CC(=O)O)c(=O)c21	-3.2	10
CCN(C(=O)C(C)Sc1ccc(S(=O)(=O)N2CCOCC2)cn1)c1ccccc1 (stereo unspecified)	x	13
O=C(Nc1ccccc1)c1cnc[nH]1	1.6&-0.9	7&2
Cc1ccc(N2C(=O)NC(=O)/C(=C\c3ccc(OCC(=O)O)c(Br)c3)C2=O)cc1	13	x
Cc1n[nH]c(=O)c2ccccc12	x	7&3
CC(C)C(NC(=O)C1CCCCC1)C(=O)Nc1ccncc1 (stereo unspecified)	x	6
NNc1nnc(-c2ccccc2)c(-c2ccccc2)n1	3.7	23
CC(=O)NC(N1CCCC1=O)(C(F)(F)F)C(F)(F)F	-2.3	2
S=C(c1cccc(Oc2ccccc2)c1)N1CCOCC1	14	2
NC(=O)COC(=O)c1ccc(Cl)c(N)c1	0.2	-5
CCOC(=O)c1c(SC)n(-c2ccccc2)c(=S)n(-c2ccccc2)c1=O	-1.1	x
O=C1NCCN1CCNS(=O)(=O)c1ccc2c(c1)CCO2	x	-6
CC(=O)Nc1ccc(S(=O)(=O)NCCNc2ccc(C(F)(F)F)cc2[N+](=O)[O-])cc1	-1.2	x
Cc1ccc(-n2c(SCc3cc(=O)n4ccccc4n3)nc3n[nH]c(C)c3c2=N)cc1Cl	x	8
O=C1CC(C(=O)N2CCN(c3ccccc3)CC2)CN1Cc1ccco1 (stereo unspecified)	x	6
CCOC(=O)N1CCC(NC(=O)c2cc(S(=O)(=O)N(CC)CC)ccc2F)CC1	-0.1	1
Cc1cc(OC(=O)c2ccc(Br)cc2)no1	-3.1	5

Carrying on.
SMILES	MgrA DNA FP	S aureus helic
COc1ccc(Cn2nc(C)c(N)c2C)cc1OC	-3.6	8
O=C(CSC1CCCCC1)N1CCc2ccccc21	x	13
O=C1/C(=C/c2ccc(O)cc2)SC(=S)N1CC1CCCO1 (stereo unspecified)	-0.7	-97
O=C(CCCN1C(=O)C2C3C=CC(C3)C2C1=O)N1CCN(c2ccccc2)CC1 (stereo unspecified)	x	11
Fc1ccccc1-c1nnc(-c2ccccc2OC(F)(F)F)o1	16	x
